Sa ugtP lethal: compounds lethal to S. aureus RN4220 ugtP deletion mutant. OD600 growth, 16 h; some inactives read as strong as hits. growth inhibition, % (concentration not given with the values). 330,000 tested, 0.54% active. AID 1259309;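 active means z-score under -3 and OD600 up to 0.15 on both plates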;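 further: plate controls were untreated wells for no effect and antibiotic for full effect; wells of about 80 µL received 100 nL stock; the first replicate is given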
Mtb hypoxia inh: reduces hypoxia-regulated biosensor signal in M. tuberculosis; AID 1159583; M. tuberculosis hypoxia-regulated fluorescent reporter, fluorescence; 300,000 tested, 0.1% active; fluorescence inhibition, % (test concentration not listed);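 active means 35 to 45% if threefold the growth effect, above 45% if 1.5-fold the growth effect; inactive means the rest, general growth blockers included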;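 further: wells of about 50 µL received 100 nL stock; 0% = vehicle wells and 100% = reference inhibitor wells; whole bacteria with a GFP reporter of the hypoxia response; strong numbers were not always called active; many hits fall short of the cut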
RN4220 kill: kills Staphylococcus aureus RN4220. AID 1259311. S. aureus RN4220 growth, OD600, 16 h. inhibition, % (no concentration beside the values). 330,000 tested, 0.33% active;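 active means z-score of -3 or lower and OD600 up to 0.18 on both plates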;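 further: plate controls were untreated cells for no effect and reference antibiotic for full effect; stock transfer was 100 nL into about 80 µL; one replicate is shown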
Bead autofluor: compound fluorescence in toxin protease inhibitor counterscreen | compound autofluorescence counterscreen, microsphere flow cytometry; stronger effect = higher value | fluorescence intensity (test concentration not listed) | 360,000 tested, 3.1% active | AID 624483;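 active means at least 3 SD above the mean of all compounds, about 16000 in these data; inconclusive means too few beads counted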;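 further: 100 nL of 1 mM stock went into each well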
PrP UTR inh: inhibition of PrP 5' UTR reporter expression; cell-based PrP 5' UTR mRNA reporter, plate reader; inhibition, % (no concentration beside the values); 340,000 tested, 0.35% active;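 active means every replicate at 50% or more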;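 further: 0 = median of the neutral control wells; tested in H4 reporter cells; numbers are from one replicate; inactives centre near -14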
BJeLR viability: kills HRASV12-expressing BJeLR cells. BJeLR (HRASV12) viability, CellTiter-Glo ATP luminescence, 48 h; reference of the scale not given here. inhibition, % (concentration not given with the values). 300,000 tested, 0.17% active. AID 1554;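 active means replicate mean above 50%; inconclusive means above 50% but judged a plate artefact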;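 further: 50 nL library stock added to about 25 µL; numbers are from one replicate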
Mtb hypoxia inh growth: further read-out of Mtb hypoxia inh, marked with its call; growth inhibition, %; measured here: M. tuberculosis growth (absorbance);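 0% = vehicle and 100% = reference antibiotic; read after six days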
The depositor's hits bear a star; ? = inconclusive; nt = no result given.

item	Structure	Sa ugtP lethal	Mtb hypoxia inh	Mtb hypoxia inh growth	RN4220 kill	Bead autofluor	PrP UTR inh	BJeLR viability
1	OC(c1ccccc1)c1nc2ccccc2s1 (centres undefined)	3	nt	nt	7.6	3722	-15	-2
2	COc1ccc(S(=O)(=O)N(C)CC(=O)Nc2cccc(C(C)=O)c2)cc1	-2	6	13	6.1	5628	-9	6
3	O=C(CNC(=O)c1cccs1)OCc1c(F)cccc1Cl	6	13	-2	2.4	3288	-21	5
4	C(=NNC(=Nc1ccccc1)c1ccccn1)c1ccccn1	3	7	6	4.3	nt	nt	nt
5	COc1ccc(-c2oc3ccc(N4CCOCC4)cc3c2/C=C/c2ccc(OC)c(OC)c2)cc1	nt	nt	nt	nt	2980	10	1
6	Cc1cc2cc(C)c(NCCNC(=O)c3cccs3)nc2cc1C	-8	-26	-11	3.9	2663	1	-4
7	O=C(CSc1nncs1)NC1CCCc2ccccc21 (centres undefined)	-4	1	11	-1.5	4668	-5	9
8	CCOC(=O)C1(Cc2ccc(Cl)cc2)CCN(Cc2ccon2)CC1	2	9	6	3.7	2296	-29	-1
9	O=C(NCCc1ccc(Cl)cc1)c1ccc(NC2=NC3CS(=O)(=O)CC3S2)cc1 (centres undefined)	7	2	3	-7.5	4255	-27	-14
10	Cc1cc(/C=C2\C(=N)N3N=C(C(C)C)SC3=NC2=O)c(C)n1Cc1ccccc1	-2	11	-3	3.2	3563	-14	0

In a second layout: two of the compounds above
3	O=C(CNC(=O)c1cccs1)OCc1c(F)cccc1Cl
4	C(=NNC(=Nc1ccccc1)c1ccccn1)c1ccccn1

assay / entry	3	4
Sa ugtP lethal	6	3
Mtb hypoxia inh	13	7
Mtb hypoxia inh growth	-2	6
RN4220 kill	2.4	4.3
Bead autofluor	3288	nt
PrP UTR inh	-21	nt
BJeLR viability	5	nt

Further results.
item	Structure	Sa ugtP lethal	Mtb hypoxia inh	Mtb hypoxia inh growth	RN4220 kill	Bead autofluor	PrP UTR inh	BJeLR viability
11	NC(=S)N/N=C/c1ncc(C(F)(F)F)cc1Cl	nt	nt	nt	nt	5387	0	18
12	NS(=O)(=O)c1ccc(NC(=O)COC(=O)CCc2c[nH]c3ccccc23)cc1	5	15	-1	3.0	4357	-28	7
13	O=C1C=C(c2cccc(Br)c2)CC(c2ccc(F)cc2)C1 (centres undefined)	7	19	7	2.2	nt	nt	nt
14	Cc1ccc(C)c(CN2C(=O)CSc3ccc(C(=O)NCCN4CCOCC4)cc32)c1	4	-10	6	-3.6	3788	-18	1
15	O=C(Nc1ccc(NC(=O)c2ccccc2F)cc1)c1ccccc1F	1	6	4	-0.2	3803	-40	-7
16	CCn1c(SCC(=O)NC2CC2)nnc1-c1ccncc1	6	8	4	3.7	4270	-19	3
17	Cc1c(C(=O)OCC(=O)NCC2CCCO2)oc2ccccc12 (centres undefined)	1	18	14	4.3	3297	-27	nt
18	CCOP(=O)(OCC)C(NC(=O)Nc1ccc(Cl)cc1)C(=O)N(CC)CC (centres undefined)	-3	-3	1	3.5	2088	-23	9
19	CC12CCC(=O)N1C(C(=O)NNC(=O)c1ccc(F)cc1)CS2 (centres undefined)	4	-2	0	2.6	4299	-16	0
20	CC(Cc1cccs1)NC(=O)Nc1ccc(F)cc1 (centres undefined)	1	3	2	2.1	4352	-32	-3

(continued)
item	Structure	Sa ugtP lethal	Mtb hypoxia inh	Mtb hypoxia inh growth	RN4220 kill	Bead autofluor	PrP UTR inh	BJeLR viability
21	Nc1cc(S(=O)(=O)N2CCCCC2)ccc1N1CCOCC1	4	13	12	3.6	4163	-26	-14
22	Cc1cc2c(c(SCC#N)n1)C(=O)OC2	5	6	-3	3.7	4217	-12	2
23	COc1ccccc1-n1cnnc1SCC(=O)NC1CCCCC1	-1	25	13	1.3	5006	-15	nt
24	COc1ccc(CN2CCC(Oc3ccc(C(=O)NCc4ccccn4)cc3)CC2)c(F)c1	10	2	0	1.1	4346	-10	0
25	Cn1cnnc1SCC(=O)c1ccc(O)c(O)c1	-5	-2	-4	-3.0	4300	-23	-1
26	CCOC(=O)c1c(NC(=O)COC(=O)c2ccc(O)cc2)sc(C(=O)N(C)C)c1C	-4	-5	6	11	4735	-7	-1
27	Cc1cccc(NC(=O)N2C3CCCC2CC(NC(=O)C(C)(C)C)C3)c1 (centres undefined)	12	9	2	3.5	3897	-27	-1
28	Cc1ccc(C)c(S(=O)(=O)N2CCN(C(=O)CCNS(=O)(=O)c3ccccc3)CC2)c1	-1	0	3	0.4	5532	0	8
29	O[C@@H]1CN(C2CCCCC2)CC[C@H]1N1CCN(CCc2ccccc2)CC1	3	-1	0	-2.4	3746	-25	6
30	Cc1ccccc1NS(=O)(=O)c1cccc(C(=O)Nc2cccc(C(=O)O)c2)c1	1	-2	21	2.2	4073	-16	-8

Going on with the list:
item	Structure	Sa ugtP lethal	Mtb hypoxia inh	Mtb hypoxia inh growth	RN4220 kill	Bead autofluor	PrP UTR inh	BJeLR viability
31	O=C(NCc1ccc2c(c1)OCO2)c1ccc2c(c1)OCO2	-1	nt	nt	6.1	4997	-8	0
32	CCOC(=O)Cn1c(=O)c2c(nc(N3CCCCC3)n2Cc2ccccc2)n(C)c1=O	1	nt	nt	-3.4	2417	-14	nt
33	CC1C2Cn3c(nc4ccccc43)C1N(C)O2 (centres undefined)	0	0	3	1.8	4044	-15	-3
34	Cc1ccccc1CSc1nnc2ccc(-c3ccncc3)nn12	17	7	19	8.1	4542	-4	-6
35	Clc1cccc(N=NN2CCOCC2)c1Cl	4	-2	0	15	4573	-18	2
36	CC(C)C(C(=O)N1CCN(C(=O)OC(C)(C)C)CC1)n1cc(-c2cn(C(C)C(=O)N3CCN(C(=O)OC(C)(C)C)CC3)nn2)nn1 (centres undefined)	3	-3	1	2.4	nt	nt	nt
37	Cc1ccc(Nc2nnc(SCn3nnc4ccccc4c3=O)s2)cc1	-10	nt	nt	-0.7	5353	-16	4
38	COc1cc(C=O)ccc1Oc1cnccn1	8	-2	2	8.8	2044	-7	-15
39	Cc1ccc(C)c(NS(=O)(=O)c2cc(C(=O)N3CCc4ccccc4C3)ccc2Cl)c1	-21	0	6	19	8240	-17	-3
40	COc1ccc(C(C)=O)cc1COC(=O)c1cnc(Cl)c(Cl)c1	14	13	8	-0.5	4440	2	-11

Other compounds follow.
item	Structure	Sa ugtP lethal	Mtb hypoxia inh	Mtb hypoxia inh growth	RN4220 kill	Bead autofluor	PrP UTR inh	BJeLR viability
41	Cc1ccc(/C=C/C(=O)Nc2ccc(S(=O)(=O)Nc3cc(C)nc(C)n3)cc2)cc1	5	3	-2	-0.8	5243	-9	-4
42	O=C(O)c1cc(S(=O)(=O)NCCCN2CCCC2=O)ccc1Cl	1	5	8	2.5	3609	-10	nt
43	COc1ccc([N+](=O)[O-])cc1NC(=S)NC(=O)C(C)(C)C	11	-8	8	3.1	5507	-27	0
44	Cc1cccc(N2CCN(S(=O)(=O)c3cn(C)cn3)CC2)c1C	10	-3	-7	6.3	4082	-13	0
45	COc1nc(-c2ccccc2)cc(-c2ccc3c(c2)OCO3)c1C#N	4	-12	4	-0.4	6040	-29	4
46	COc1cc(OC)c(-c2noc(C(=O)OC(C)(C)C)c2C(=O)OC(C)(C)C)c(OC)c1	7	4	-1	8.9	2417	-88	-4
47	CCOC(=O)c1c(NC(=O)COC(=O)Cn2c(C(F)(F)F)nc3ccccc32)sc(C)c1C	2	nt	nt	6.2	2467	-6	-1
48	CCCCN1C(=N)N(C(CCC)CN2CCCC2CN2C(N)=NCC2Cc2ccccc2)CC1C(C)CC (centres undefined)	-1	nt	nt	-7.4	nt	nt	nt
49	COc1cccc(-n2c(SC3CCOC3=O)nc3ccccc3c2=O)c1 (centres undefined)	6	8	7	0.0	12536	nt	2
50	CC(=O)Nc1ccc(S(=O)(=O)NC(CC(=O)N(C)Cc2ccccc2)C(C)C)cc1 (centres undefined)	-3	nt	nt	-1.2	2117	-8	1

The list continues:
item	Structure	Sa ugtP lethal	Mtb hypoxia inh	Mtb hypoxia inh growth	RN4220 kill	Bead autofluor	PrP UTR inh	BJeLR viability
51	CCOC(=O)c1c(C)nc2sc(C(N)=O)c(N)c2c1-c1ccccc1	28	13	12	9.6	3033	2	-7
52	COc1ccc(C(CNC(=O)COc2ccc([N+](=O)[O-])cc2)N2CCCCC2)cc1 (centres undefined)	1	7	7	-0.3	6061	-18	-5
53	CCOc1ccc(NCc2ccccc2OCc2cccc(F)c2)cc1	92*	13	7	-0.9	1932	-15	-8
54	CCC1(C)NC(=O)N(N=Cc2cc(OC)c(O)c(OC)c2)C1=O (centres undefined)	-62	12	-5	16	nt	nt	nt
55	O=C(O)c1cccnc1Sc1ccccc1	1	-1	6	0.6	2578	-4	9
56	COc1ccc(CNC(=O)C(OC(=O)c2cccs2)C(C)C)cc1 (centres undefined)	4	2	2	1.5	4142	6	-6
57	Cc1ccc(C(C[N+](=O)[O-])Sc2ccc(N)cc2)cc1 (centres undefined)	12	1	-7	5.0	nt	-15	-1
58	Cc1c(NC(=O)c2cccc(NC(=O)Cc3ccc(F)cc3)c2)c(=O)n(-c2ccccc2)n1C	10	13	12	8.1	?	-12	nt
59	CCN(C[C@H]1N[C@@](CC)(C(=O)OC)[C@H]2C(=O)N(C)C(=O)[C@@H]12)S(=O)(=O)c1ccccc1	0	-3	7	1.7	3619	-28	nt
60	CC(=O)Nc1cccc(C(=O)N2CCN(S(=O)(=O)c3ccc4ccccc4c3)CC2)c1	-4	0	8	0.6	3709	-13	-1

A run of entries taken from the entries so far, for reference:
item	Structure	Sa ugtP lethal	Mtb hypoxia inh	Mtb hypoxia inh growth	RN4220 kill	Bead autofluor	PrP UTR inh	BJeLR viability
51	CCOC(=O)c1c(C)nc2sc(C(N)=O)c(N)c2c1-c1ccccc1	28	13	12	9.6	3033	2	-7
52	COc1ccc(C(CNC(=O)COc2ccc([N+](=O)[O-])cc2)N2CCCCC2)cc1 (centres undefined)	1	7	7	-0.3	6061	-18	-5

The results go on:
item	Structure	Sa ugtP lethal	Mtb hypoxia inh	Mtb hypoxia inh growth	RN4220 kill	Bead autofluor	PrP UTR inh	BJeLR viability
61	O=C(CSc1ccc(Cl)cc1)N1CCCC1	3	nt	nt	3.3	2090	-32	-1
62	COc1ccc2noc3c2c1C(=O)c1ccccc1-3	nt	nt	nt	nt	7712	-21	14
63	COC(=O)c1cc(OC)c(OC)c(OC)c1[N+](=O)[O-]	1	13	4	0.9	5411	-1	-10
64	CC(C)=NNc1nc2c(c(=O)n(C)c(=O)n2C)n1C	8	-3	2	3.3	nt	-18	1
65	CCc1noc(C)c1C(=O)OC(C)C(=O)Nc1cc([N+](=O)[O-])ccc1OC (centres undefined)	5	8	0	4.1	6123	-13	-8
66	Cc1ccc(-c2ccc(C=Nn3cnnc3)o2)cc1	2	9	-3	2.2	nt	nt	nt
67	CC(=O)c1ccc(OCC(=O)c2ccc(-c3ccccc3)cc2)cc1	-13	9	2	2.2	2443	-16	3
68	Cc1ccccc1C(=O)NCC(=O)NNC(=O)c1cccc(Cl)c1	5	4	-4	3.5	?	8	nt
69	O=C(O)COc1ccc(/C=N/NC(=O)c2ccc(-c3csc(Nc4ccc(Cl)cc4)n3)cc2)cc1	nt	nt	nt	nt	4072	-46	27
70	O=C(NNC(=O)C1CCN(c2ncccn2)CC1)c1ccc(F)cc1	3	10	8	2.9	5542	-89	5

Additional records follow.
item	Structure	Sa ugtP lethal	Mtb hypoxia inh	Mtb hypoxia inh growth	RN4220 kill	Bead autofluor	PrP UTR inh	BJeLR viability
71	Cc1cc(C)nc(-n2ncc3c2CC(c2cccc(Cl)c2)CC3=O)n1 (centres undefined)	1	1	2	3.4	4123	-25	10
72	N#Cc1c(-n2cccc2/C=N/O)sc2c1CCCC2	nt	nt	nt	nt	2490	-6	1
73	CC(OC(=O)c1ccc2c(=O)n3c(nc2c1)CCCCC3)C(N)=O (centres undefined)	5	2	-6	5.6	1997	-22	1
74	COc1ccc(N2CCN(c3cc(C)c4ccc(C)cc4n3)CC2)cc1	nt	nt	nt	nt	3538	-14	7

Source: PubChem BioAssay (several laboratories)

Not a hit list. Share with any hit: about 4%.
